YjeE inh – YjeE (TsaE) inhibition, E. coli. purified YjeE, fluorescence polarisation of a bound ADP probe. actives 0.05% (n = 71,000). P0AF67. Potency, µM; active = well fitted falling curve; inconclusive = weaker or top-dose-only fall, or a rising curve; inactive = flat or poorly fitted curve;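 further: top concentration of the series not given in the record; excess ADP was the control for the full effect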
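Fluorescence polarization of a BODIPY Texas Red–ADP probe (2 uM) bound to purified YjeE (10 uM) was read after 15 min room-temperature incubation with compounds. Loss of polarization marks inhibitors; ADP serves as titrated control.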
Bst PK mod – modulators of Bacillus stearothermophilus pyruvate kinase. AID 361. actives 1.2% (n = 51,000). Potency, µM. partly purified Bacillus stearothermophilus pyruvate kinase, luminescence ATP production; ribose 5-phosphate activator present at AC10; in the data active means potency below about 11 µM; inconclusive means mostly about 12 µM to 25 µM; inactive means weaker than that;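 the screen sought inhibitors and activators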;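 further: potency means the concentration at half of the fitted maximal effect; scaled between full activation by ribose 5 phosphate and full inhibition by luteolin; about four in five hits inhibit and the cells do not say which; series up to 57 µM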
* marks the source's active call; other numbers are inactive results; i = inactive; ? = inconclusive; . = not tested or not shown. A portion of the library. The share of hits here may be higher or lower than overall.

SMILES	YjeE inh	Bst PK mod
COC(=O)c1cn(CCOc2ccccc2)c2ccccc12	i	>57
COc1ccc(CNC(=O)CS(=O)Cc2nc(-c3ccccc3C)oc2C)cc1 (stereo not given)	i	.
Cc1cc(NC(=O)c2noc3c2CCCC3)no1	i	>57
Oc1c(Cl)cc(Cl)c(Cl)c1Cc1c(O)c(Cl)cc(Cl)c1Cl	i	.
CN(C)c1ccc(NC(=O)CSc2nc3c(c(=O)[nH]2)CCCC3)cc1	i	>57
COc1ccc2cc(CCNC(=O)C3CCCC3)c(=O)[nH]c2c1	i	.
CN(C)CC/C=C1\c2ccccc2CSc2ccccc21	i	.
Cc1nn(-c2ccccc2)c(Cl)c1C(=O)Nc1nnc(C2CCCC2)s1	i	>57
COCc1c(C(=O)OCC(=O)c2c(N)n(CC(C)C)c(=O)n(C)c2=O)oc2ccccc12	i	>57
Cc1nc2cc(NC(=O)Nc3nccs3)ccc2n1C	i	11*
COc1ccc(Cc2nnc(SCc3nc4ccccc4c(=O)[nH]3)o2)cc1	i	>57
COc1ccccc1NC(=O)CSc1ccc2nnc(-c3ccncc3)n2n1	i	.
Cc1ccc2cc3c(NC(=O)c4ccco4)nn(C)c3nc2c1	i	i
CS(=O)(=O)N(Cc1nnc(-c2cccs2)o1)c1ccc(Cl)cc1F	i	>57
CCCOC(=O)CN1C(=O)c2ccc(C(=O)OCCC)cc2C1=O	i	>57
Cc1nc(NCc2ccccc2)c2nc(-c3ccccc3)n(CCN3CCCC3)c2n1	i	.
C=CCOC(=O)C(C#N)c1nc2ccccc2nc1N1CCN(Cc2ccc3c(c2)OCO3)CC1 (stereo not given)	i	>57
COc1ccc(N(CC(=O)N2c3ccccc3CC2C)S(=O)(=O)c2c(C)noc2C)cc1 (stereo not given)	i	>57
O=C(Nc1ccccc1C(=O)NCCN1CCOCC1)c1ccco1	i	>57
O[C@@H](COc1ccc(Cl)cc1Cl)CN1CCCC1	i	.
CCOC(=O)c1cc(C)sc1NC(=O)C1CCC1	i	>57
O=C(CCS(=O)(=O)c1ccc(Br)cc1)N1CCN(c2ccccc2)CC1	i	>57
COc1cc(S(=O)(=O)Nc2ccccc2C)ccc1Cl	i	>57
CC(C)(C)c1nnc2sc(SC/C(O)=C(\C#N)c3nc4ccccc4[nH]3)nn2c1=O	i	>57
O=C(c1cccs1)N(Cc1ccccn1)Cc1ccco1	i	>57
Further entries.
SMILES	YjeE inh	Bst PK mod
COC(=O)[C@H](C)[C@H]1C[C@]1(C)[C@H](NC(=O)OCc1ccccc1)c1ccccc1	i	.
CCCn1c(C)nc2c(NCC(C)(C)CN(C)C)nc(C)nc21	i	.
COc1cc(-c2noc(-c3cccc(Cl)c3)n2)cc(OC)c1OC	i	>57
Cc1nn(-c2ccc(S(=O)(=O)O)cc2)c(O)c1N=Nc1ccc(-c2ccc(N=Nc3ccc4c(S(=O)(=O)O)cc(S(=O)(=O)O)c(N)c4c3O)c(O)c2)cc1O.[Cu].[Cu]	?	.
COC(=O)c1ccccc1NC(=O)CN(Cc1ccccc1)S(C)(=O)=O	i	?
Nc1nnc(-c2cccc(Cl)c2Cl)c(N)n1	i	?
O=C(c1ccc(F)cc1)N1CCN(c2ncccn2)CC1	i	>57
CCOC(=O)c1cnc(SCc2ccc(C)cc2)nc1N	i	>57
CN1CCn2c1nc(N1CCCCC1)nc2=O	i	>57
O=C(Nc1ccccc1)N1CCN2C(=O)c3ccccc3C12c1ccccc1 (stereo not given)	i	.
CCC(C)C(NC(=O)OC(C)(C)C)C(=O)NC(CC(C)C)C(N)=O (stereo not given)	i	>57
COC(=O)C1C2C=CC3(CN(c4cccc(Cl)c4)C(=O)C13)O2 (stereo not given)	i	.
Cc1cccc(N(CC(=O)NC2CCCCC2)C(=O)c2c(C)noc2C)c1	i	>57
O=C(c1ccccc1OCc1ccccc1Br)N1CCN(c2ncccn2)CC1	i	>57
O=C(COC(=O)c1cncc(Br)c1)NCc1ccco1	i	>57
CC1CCC(NC(=O)Cn2cc3c(n2)CCCC3)CC1 (stereo not given)	i	.
Nc1cc(=O)nc(SCC(=O)NC2CCCCC2)n1-c1ccccc1	i	>57
Cc1cccc(N2CCN(c3nc4ccc(Cl)cc4n4cnnc34)CC2)c1C	i	.
CCSCCCC(=O)O	i	.
COc1ccc(NS(=O)(=O)c2ccc(Br)s2)cc1OC	i	>57
Cc1ccc(S(=O)(=O)Nc2ccccc2C(N)=O)cc1	i	>57
COc1ccc(C2CC(C(F)(F)F)n3nc(C(=O)NCCCn4ccnc4)cc3N2)cc1OC (stereo not given)	?	>57
CCOc1ccc(N2CC(=O)N/C2=N\c2nc(C)cc(C)n2)cc1	i	>57
O=C(Nc1ccc2c(c1)OCO2)c1ccc(COc2ccc3c(c2)CCC3)o1	i	>57
CC(C)Cn1c2c(c(O)c(C(=O)Nc3ncccc3O)c1=O)CCCC2	i	>57

Copied from the list.
O=C(c1ccccc1OCc1ccccc1Br)N1CCN(c2ncccn2)CC1 @ Bst PK mod = >57
COCc1c(C(=O)OCC(=O)c2c(N)n(CC(C)C)c(=O)n(C)c2=O)oc2ccccc12 @ Bst PK mod = >57

Later entries.
SMILES	YjeE inh	Bst PK mod
O=C(c1cc(-c2ccco2)on1)N1CCOCC1	i	>57
COc1ccc2nc(N3CCC(C)CC3)c(C#N)cc2c1	i	.
Oc1ccc(-c2[nH]ncc2-c2cccc3cccnc23)c(O)c1	i	5.9*
CCn1c(SCC(N)=O)nc2ccccc2c1=O	i	.
CCOCCCNC(=O)Cn1cc2c(n1)CCCCC2	i	.
CCOc1cc(C(=O)NC(C)c2ccncc2)cc(OCC)c1OCC (stereo not given)	i	>57
COC(=O)c1sccc1NC(=O)c1ccc(OC)cc1	i	>57
COc1ccccc1-c1cc(NCc2ccccc2)ncn1	i	.
COc1ccc(S(=O)(=O)NCCSCc2ccco2)cc1Cl	i	>57
O=C(COc1ccccc1)N1CCN(C(=O)c2cccs2)CC1	i	>57
O=c1[nH]c(CN2CCc3ccccc3C2)nc2ccccc12	i	>57
CC(Oc1ccc(Cl)cc1Cl)C(=O)NCCCN(C)C (stereo not given)	i	.
COc1ccc(F)cc1S(=O)(=O)NC(Cc1ccccc1)C(N)=O (stereo not given)	i	>57
O=C(Nc1cccc(-c2nnc(-c3ccccc3)o2)c1)C1CCCCC1	i	>57
Cc1cccc(CNc2ccnc(-c3cccc(NS(C)(=O)=O)c3)n2)c1	i	.
Cc1onc(-c2c(F)cccc2Cl)c1C(=O)OCN1C(=O)c2ccccc2C1=O	i	.
CCc1nnc(NC(=O)Nc2ccc(OC)cc2)s1	i	>57
O=c1cc(O)nc2n1CCCS2	.	>26
NC(=O)c1cccc2c1C(=O)N(C1CCCCC1)C2	i	.
COc1cc(C(=O)Nc2ccccc2N2CCN(S(C)(=O)=O)CC2)cc(OC)c1OC	i	>57
Cc1cccc(-c2c3c(=O)n(C)c(=O)n(C)c3cn2C(C)(C)C)c1	i	>57
O=c1cnc2cnc(N3CCOCC3)nc2n1C1CC1	i	.
O=C(NC1c2ccccc2-c2ccccc21)N1CCOCC1	i	.
CC(=O)Nc1ccc(C(=O)Nc2ccc3c(c2)OCO3)cc1	i	>57
COc1ccc(-n2c(=O)c(-c3ccc(Cl)cc3)nc3cnc(N4CCOCC4)nc32)cc1	i	.
Additional results
SMILES	YjeE inh	Bst PK mod
NC(N)=NC(N)=Nc1ccc(S(N)(=O)=O)cc1	i	.
Cc1oc2c(c1C(=O)NC(Cc1c[nH]c3ccccc13)C(=O)O)CCCC2 (stereo not given)	i	.
CCOC(=O)CNc1c(N2CCN(c3ccccn3)CC2)c(=O)c1=O	i	.
Cc1c(N=Cc2nc3ccccc3[nH]2)c(=O)n(-c2ccccc2)n1C	i	.
CCOc1ccc2nc(NCCO)[nH]c2c1	i	>57
CC(=O)N(CC1CCCO1)c1nnc(-c2ccccn2)s1 (stereo not given)	i	>57
CN1CCc2ccccc2[C@@H]1Cc1ccccc1NC(=O)c1sc2ccccc2c1Cl	i	.
COc1cc(C(=O)N2CCN(c3ncnc4sc(C)c(C)c34)CC2)cc(OC)c1OC	i	>57
CC(NC(=O)c1ccccc1)C(=O)NC1=NCCS1 (stereo not given)	i	>57
Cc1cc(C)c2c(CC(=O)N(CCC#N)Cc3cccnc3)coc2c1	i	>57
Nc1nc(CSc2ncn(-c3ccccc3)n2)cs1	i	.
O=C(NCC1CCCO1)C1CCN(C(=O)c2ccc(Cl)cc2)CC1 (stereo not given)	i	>57
CCOC(=O)c1[nH]c2ccccc2c1NC(=O)C1CCCCC1	i	>57
CCCN(c1ccc(OCC)cc1)S(=O)(=O)c1ccc2c(c1)CCN2C(=O)CCC(=O)O	i	>57
CNC(=O)C1C2C=CC3(O2)C1C(=O)N(CCOC)C3C(=O)NCc1ccc(OC)cc1 (stereo not given)	i	>57
Cc1cc(Br)ccc1NC(=O)CNC(=O)CSc1n[nH]c(N)n1	i	>57
O=C(O)[C@@H]1[C@@H](C(=O)Nc2ccccc2)[C@@H]2C=C[C@@H]1O2	i	.
COc1ccc(NC(=O)N2CCC(NC(=O)c3ccco3)CC2)cc1	i	>57
CCC(=O)N1CCc2cc(Br)cc(S(=O)(=O)C3(C(=O)OC)CC3)c21	i	>57
Cc1ccc(-n2cc3c(=O)n(C)c(=O)n(C)c3c2)cc1C	i	10*
COC(=O)c1ccccc1NC(=O)CSc1nnc(Cc2ccc(Cl)cc2)o1	i	>57
COC(=O)c1ccc(-n2nnnc2SCC(=O)N2CCCCC2)cc1	i	.
O=C(Nc1ccccc1)C1=C(O)CC(c2ccoc2)CC1=Nc1ccccc1 (stereo not given)	i	.
CC1CN(CC(O)COc2ccc(C(C)C)cc2)CC(C)O1 (stereo not given)	i	>57
Cc1nc(N2CCN(C(c3ccccc3)c3ccccc3)CC2)[nH]c(=O)c1C	i	>57

Three compounds already listed, arranged by the number in Bst PK mod, highest first.
SMILES	YjeE inh	Bst PK mod
Cc1nc2cc(NC(=O)Nc3nccs3)ccc2n1C	i	11*
Cc1ccc(-n2cc3c(=O)n(C)c(=O)n(C)c3c2)cc1C	i	10*
Oc1ccc(-c2[nH]ncc2-c2cccc3cccnc23)c(O)c1	i	5.9*

Additional compounds follow.
SMILES	YjeE inh	Bst PK mod
CCc1ccc(OCC(O)CN2CCN(c3ccccc3)CC2)cc1 (stereo not given)	i	>57
COc1ccc(N2CCN(C(=O)c3c(-c4ccccc4)noc3C)CC2)cc1	i	.
O=C(CSc1nnc(C2CCCCC2)n1Cc1ccccc1)NCc1ccco1	i	>57
COc1cccc(OC)c1-c1nn2c(-c3ccco3)nnc2s1	.	i
COC(=O)CN1C(=O)C(C)(C)Oc2ccc(C(=O)NC3CC3)cc21	i	>57
CC(C)(C)C(=O)Nc1ncc(C(F)(F)F)cc1Cl	i	>57
C/C=C(\C)c1nnc(NC(=O)OCC)s1	i	>57
CCc1ccc(CCC(=O)Nc2ccc(C)c(C)c2)o1	i	>57
COc1cc(C(=O)Nc2nncs2)cc(OC)c1OC	i	.
c1csc(-n2nc3ccccc3n2)c1	i	.
Cn1c(=O)oc2cc(S(=O)(=O)NCCC(=O)NCCc3ccccc3)ccc21	i	>57
C=C(C)CSC1=C(C#N)C(c2ccccc2Cl)CC(=O)N1 (stereo not given)	i	.
Cc1cc(C)n(-c2ccc(C(=O)OCc3nnc(-c4ccccc4)o3)cc2)n1	i	>57
COc1ccc(Nc2cc(C)nc(-n3nc(C)cc3C)n2)cc1	.	i
O=C(OCc1csc(-c2ccccc2)n1)c1cccs1	i	?
Cc1nnc(-n2cnc3ccccc32)c2ccccc12	i	>57
COc1cccc(N(C(C)=O)c2nc(C)cc(C)c2C#N)c1	i	>57
COC(=O)c1cc2ccc(OC)c(OC)c2c(=O)s1	i	>57
CCOC(=O)c1c(C)c(C)n2c1NC(=O)C2	i	.
COc1ccc(-c2ccc(-c3noc(-c4cccc(OC)c4)n3)c(OC)n2)cc1	i	>57
CCOc1ccc(Cn2nnc(C(=O)NCc3ccccc3)c2N)cc1	i	.
NC(=O)NC(=O)CSc1cccc(C(F)(F)F)c1	i	>57
CCCCC(=O)Nc1ccc(NC(=O)c2ccc3c(c2)OCO3)cc1OC	i	.
CCN1CCc2c(C#N)c(N3CCCCC3)nc(N3CCOCC3)c2C1	.	>26
CCOC(=O)C1CCCN(Cc2ccc(OC)cc2OC)C1 (stereo not given)	i	.

Quoted at random: six records from the list
SMILES	YjeE inh	Bst PK mod
NC(=O)NC(=O)CSc1cccc(C(F)(F)F)c1	i	>57
CC(C)(C)C(=O)Nc1ncc(C(F)(F)F)cc1Cl	i	>57
COc1ccc(-c2ccc(-c3noc(-c4cccc(OC)c4)n3)c(OC)n2)cc1	i	>57
CCOc1ccc(Cn2nnc(C(=O)NCc3ccccc3)c2N)cc1	i	.
COc1ccc(N2CCN(C(=O)c3c(-c4ccccc4)noc3C)CC2)cc1	i	.
COc1cccc(N(C(C)=O)c2nc(C)cc(C)c2C#N)c1	i	>57

(further entries)
SMILES	YjeE inh	Bst PK mod
Cc1cccc(N2C(=O)SC(N(C)c3ccccc3)C2=O)c1 (stereo not given)	i	>57
COc1ccc(OC)c(NC(=O)CSCC(=O)O)c1	i	>57
O=C1c2ccccc2C(=O)N1CCCCN(C(=O)c1ccco1)c1ccc(Cl)cc1	i	.
CN(CC(O)COc1ccc(OCC(O)CN(C)C2CCCCC2)cc1)C1CCCCC1 (stereo not given)	.	>26
CC(=O)NC1C(=O)N=C(SCC(=O)NC2CCCCC2)NC1=O (stereo not given)	i	>57
CCOC(=O)c1cn[nH]c1N	i	.
Nc1ccc(-c2n[nH]c(=O)c3ccccc23)cc1N	i	>57
